From PubChem BioAssay
KCNQ2 enhance = enhances the rat KCNQ2 potassium channel. O88943. CHO-K1 KCNQ2, FluxOR thallium flux fluorescence; hits give high values. B-score at 10 µM. actives 0.54% (n = 310,000);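 active = fluorescence ratio B-score at least 3 SD of library B-scores, with initial fluorescence B-score within 3 SD, cut at about 5.3 in these data; same plate scores as AID 2156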;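 note: B-score of peak minus minimum over baseline fluorescence ratio after K+ and Tl+ stimulus; positive B-score means potentiation of KCNQ2 with more thallium influx and brighter signal; only the inactives scoring about 0 or higher are listed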
Target sequence (O88943 whole entry, looked up): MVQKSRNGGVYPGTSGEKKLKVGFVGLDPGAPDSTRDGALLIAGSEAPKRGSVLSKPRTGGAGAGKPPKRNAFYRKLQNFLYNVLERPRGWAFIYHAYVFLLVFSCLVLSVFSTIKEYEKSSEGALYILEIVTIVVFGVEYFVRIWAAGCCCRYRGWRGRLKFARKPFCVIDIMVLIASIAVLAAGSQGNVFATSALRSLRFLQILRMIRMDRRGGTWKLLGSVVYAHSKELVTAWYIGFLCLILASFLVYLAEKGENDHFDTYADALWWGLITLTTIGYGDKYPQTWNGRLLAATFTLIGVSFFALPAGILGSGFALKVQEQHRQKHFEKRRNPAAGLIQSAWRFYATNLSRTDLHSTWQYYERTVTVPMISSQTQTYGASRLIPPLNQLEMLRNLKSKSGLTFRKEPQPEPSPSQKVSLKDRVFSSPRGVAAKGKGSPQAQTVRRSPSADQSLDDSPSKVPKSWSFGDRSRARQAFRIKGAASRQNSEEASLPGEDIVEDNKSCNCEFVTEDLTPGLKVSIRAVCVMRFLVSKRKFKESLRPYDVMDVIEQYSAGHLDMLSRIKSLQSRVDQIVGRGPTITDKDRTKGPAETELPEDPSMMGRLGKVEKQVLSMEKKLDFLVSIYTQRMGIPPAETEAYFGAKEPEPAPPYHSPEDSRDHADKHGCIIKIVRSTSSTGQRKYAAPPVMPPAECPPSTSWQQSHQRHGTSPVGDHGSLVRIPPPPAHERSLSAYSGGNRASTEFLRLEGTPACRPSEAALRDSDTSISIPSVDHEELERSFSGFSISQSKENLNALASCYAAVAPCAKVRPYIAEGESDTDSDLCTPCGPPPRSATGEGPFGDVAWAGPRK
KCNQ2 enhance baseline = further read-out of KCNQ2 enhance, marked with its call; B-score; compound at 10 µM; measured here: initial fluorescence intensity artifact check;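 brightness before thallium and not channel activity; 0 = typical well and far values either way flag optical interference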
* = called active by the depositor. The list is partial; the hit share may differ from the screen's.

SMILES	KCNQ2 enhance	KCNQ2 enhance baseline
COCCNC(=O)C(c1ccc(C)o1)N(Cc1ccc(OC)cc1)C(=O)Cn1nnc2ccccc21 (stereo not drawn)	0.3	2.97
CC(C)CCNC(=O)c1ccc2c(c1)ncn2C1CCCC1	1.71	0.04
CCCCN(CC)CCNC(=O)c1cn(CCOC)c(=O)c2c1c1ccccc1n2C	0.82	0.01
Cc1cccc(OCCn2c(=S)[nH]c3ccccc32)c1	2.67	-0.43
CCOC(=O)CSc1nc2c(c(=O)[nH]1)C(C)(CC)Cc1ccccc1-2 (stereo not drawn)	0.3	-2.03
COC(=O)c1cccc(Oc2nc3c(c(=O)n(C)c(=O)n3C)n2C(C)C)c1	0.32	0.12
CCOP(=O)(OCC)C(NC(=O)Nc1cccc(Cl)c1)C(N)=O (stereo not drawn)	0.83	-1.83
COc1cccc(NC(=O)CSc2nnc(-c3ccoc3C)n2-c2ccccc2)c1	0.94	0.84
O=C1CSC2(CCCCC2)N1CCO	1.28	-0.52
COC(=O)c1ccc(NC2=CC(=O)CC(C)(C)C2)cc1	0.76	0.43
Cc1cc(C)nc(NS(=O)(=O)c2ccc(NC(=O)C3CC3)cc2)n1	0.65	-0.04
O=C(O)c1ccc(/C=C(\c2nc3ccccc3[nH]2)c2nc3ccccc3s2)cc1	0.62	-1.11
CC(=O)Nc1cccc(S(N)(=O)=O)c1C	0.09	0.01
CCn1c(COc2cccc3cccnc23)nnc1SCC(=O)O	0.13	-1.32
Cc1ccc(S(=O)(=O)N2CCOCC2)cc1NC(=O)CN(C)C1CCS(=O)(=O)C1 (stereo not drawn)	0.27	0.73
Cc1ccc(C)c(OCc2cc(C(=O)N(C)Cc3nccs3)no2)c1	1.51	0.51
CCOC(=O)NC(=O)CSc1nnnn1-c1ccc(C)cc1	0.74	-0.08
COc1ccc(-c2cc(C(=O)N3CCOCC3)no2)cc1OC	0.51	-1.36
Cc1cc(N2CCN(Cc3nc(-c4ccc(Cl)cc4)oc3C)CC2)cc(C)n1	1.64	-1.23
O=C(NC1CCCCC1)C1CCN(C(=O)c2ccc(Cl)cc2)CC1	1.08	-0.02
CC(=O)N1[C@H](C)C=C[C@]1(Cc1ccccc1)C(=O)NCc1cc(F)cc(C(F)(F)F)c1	0.02	1
CCOc1ncccc1C(=O)OCC(=O)c1ccc(F)cc1	0.45	1.2
O=C(NC1CCCCC1)c1cccc(COCC(F)(F)F)c1	0.3	0.06
CN1CCN(S(=O)(=O)c2ccc(NC(=O)Cc3cccs3)cc2)CC1	0.51	1.82
Cc1cnc(C(=O)NCc2ccc(F)cc2)cn1	1.15	0.22
CC(C)OCCCNC(=O)c1cc2c(=O)n(C)c3ccccc3c2n1C	0.83	-1.86
COc1ccc(/C=N/N=C/c2ccc(OC)cc2)cc1	0.5	0.74
COc1ccc(C(CC(=O)N2CCN(c3ccccc3)CC2)c2c(OC)cc(OC)c3ccc(=O)oc23)cc1 (stereo not drawn)	0.29	0.04
CC1CCN(C(=O)C(NS(=O)(=O)c2cccc3nsnc23)c2ccccc2)CC1 (stereo not drawn)	2.43	-2.12
Cc1nnc(SCCC(=O)Nc2ccc(Cl)cc2)o1	2.42	0

Part of the list above, set out differently:
Structure,KCNQ2 enhance,KCNQ2 enhance baseline
Cc1cc(N2CCN(Cc3nc(-c4ccc(Cl)cc4)oc3C)CC2)cc(C)n1,1.64,-1.23
CCOc1ncccc1C(=O)OCC(=O)c1ccc(F)cc1,0.45,1.2

Next compounds
SMILES	KCNQ2 enhance	KCNQ2 enhance baseline
COc1ccc(C(=O)c2cc3ccc(O)cc3oc2=O)cc1	0.2	-1.85
Cc1csc(/N=C/N(C)C)c1C#N	0.04	-0.84
CCOC(=O)Cn1cc(Cl)c(=O)c(Cl)c1	0.12	0.51
Cc1ccc(SCC(=O)OCC(=O)N(C)CC(=O)Nc2ccc(F)cc2)cc1C	7.03*	1.66*
COc1ccc(NC(=O)CCNS(=O)(=O)c2cc(Br)ccc2Br)cc1S(N)(=O)=O	0.81	-0.94
CCCc1nnc(NC(=O)CCCN2C(=O)c3ccccc3C2=O)s1	0.51	-0.09
Cc1ccc(NC(=O)C/C(N)=N/OC(=O)c2ccccc2)cc1	0.55	-1.93
COc1ccc(S(=O)(=O)Nc2ccc(S(=O)(=O)N3CCCCC3)cc2)cc1OC	0.2	0.37
COc1ccc(Cl)cc1NC(=S)N1CCCCCC1	0.14	1.81
COc1ccccc1CC(=O)O/N=C(\N)c1cccc([N+](=O)[O-])c1	0.15	0.13
COc1ccc(CCNC(=O)NCCc2c[nH]c3ccccc23)cc1OC	0.45	0.2
COCC(=O)Nc1cc(C(=O)Nc2ccccc2)ccc1Cl	1.33	-0.54
Cc1ccc2oc(Nc3nc(C)cc(C)n3)nc2c1	1.05	0.52
CS(=O)(=O)c1ccc(Cl)c(NC(=O)COC(=O)CCc2c[nH]c3ccccc23)c1	0.36	0.76
O=C(Cc1ccccc1)Nc1cccc(N2CCCC2)c1	6.01*	1.18*

Gathered by group: the entries above with an aryl methoxy group.
SMILES	KCNQ2 enhance	KCNQ2 enhance baseline
COCCNC(=O)C(c1ccc(C)o1)N(Cc1ccc(OC)cc1)C(=O)Cn1nnc2ccccc21 (stereo not drawn)	0.3	2.97
COc1cccc(NC(=O)CSc2nnc(-c3ccoc3C)n2-c2ccccc2)c1	0.94	0.84
COc1ccc(-c2cc(C(=O)N3CCOCC3)no2)cc1OC	0.51	-1.36
COc1ccc(/C=N/N=C/c2ccc(OC)cc2)cc1	0.5	0.74
COc1ccc(C(CC(=O)N2CCN(c3ccccc3)CC2)c2c(OC)cc(OC)c3ccc(=O)oc23)cc1 (stereo not drawn)	0.29	0.04
COc1ccc(C(=O)c2cc3ccc(O)cc3oc2=O)cc1	0.2	-1.85
COc1ccc(NC(=O)CCNS(=O)(=O)c2cc(Br)ccc2Br)cc1S(N)(=O)=O	0.81	-0.94
COc1ccc(S(=O)(=O)Nc2ccc(S(=O)(=O)N3CCCCC3)cc2)cc1OC	0.2	0.37
COc1ccc(Cl)cc1NC(=S)N1CCCCCC1	0.14	1.81
COc1ccccc1CC(=O)O/N=C(\N)c1cccc([N+](=O)[O-])c1	0.15	0.13
COc1ccc(CCNC(=O)NCCc2c[nH]c3ccccc23)cc1OC	0.45	0.2

The results go on.
SMILES	KCNQ2 enhance	KCNQ2 enhance baseline
COc1ccc(OC)c(C2C(C#N)=C(N)N(N(C)C)C3=C2C(=O)CC(C)(C)C3)c1 (stereo not drawn)	0.52	0.74
CCC1CCCCN1CCCn1c(=S)[nH]c2ccccc2c1=O (stereo not drawn)	2.38	-0.06
COc1cc(NC(=O)C2CCN(S(=O)(=O)c3cccs3)CC2)cc(OC)c1	1.83	-0.27
O=C(CCN1C(=O)/C(=C/c2ccc(F)cc2)SC1=S)Nc1cccnc1	0.49	-1.34
CC1Cc2cc(S(=O)(=O)N3CCN(c4ccc(Cl)cc4)CC3)ccc2N1C(=O)C1CC1 (stereo not drawn)	1.62	-1.07
CC1(C)C(=O)OC(c2ccccc2)C(C)(C)C1=O (stereo not drawn)	0.53	0.97
CCC(C(=O)Nc1ccccc1)c1ccccc1 (stereo not drawn)	0.67	-2.93
CC(C)(O)C#Cc1ccc([C@@H]2C[C@H]3CN(c4ccccc4)C(=O)[C@]34CCCN24)s1	1.54	-0.37
O=C(Cn1cnc2c(nnn2Cc2ccc(F)cc2)c1=O)Nc1ccccc1	0.04	-0.84
Cc1nn(C)c(C)c1CN(C)C(=O)c1cc2n(n1)C(C(F)(F)F)CC(c1cccs1)N2 (stereo not drawn)	0.41	1.33
O=S1(=O)[C@H]2C[C@@H]3CC[C@]2(CN1Cc1cccc(F)c1)O3	0.88	1.06
Cc1ccc(NC(=O)COC(=O)c2ccccc2-c2nc3ccccc3s2)c(C)c1	0.29	0.84
Cc1cc(NS(=O)(=O)c2ccc(NC(=O)COc3ccccc3Cl)cc2)no1	0.85	1.63
CCc1nc2c(nnn2Cc2ccc(F)cc2)c(=O)[nH]1	1.25	-0.62
Cc1ccc(C(=O)N2CCN(S(=O)(=O)c3ccc(C)c([N+](=O)[O-])c3)C2)cc1	0.27	-1.17
O=C(Nc1ccc(F)cc1)c1ccc2c(=O)n(CC3CCCO3)c(=S)[nH]c2c1 (stereo not drawn)	0.08	1.27
CN(C)c1ccc(Nc2cc(Cl)ncn2)cc1	0.71	1.62
COc1ccc(S(N)(=O)=O)cc1C(=O)NCCCN1CCN(c2ccc(C)cc2)CC1	1.52	-1.01
O=C(Nc1ccccc1F)c1ccc2ncsc2c1	2.82	-0.15
CN1CCN(C(=O)C2=C[C@H](c3ccc(C(F)(F)F)cc3)C[C@H](OCc3ccc(CO)cc3)O2)CC1	0.39	-0.66
Cc1ccc(NC(=O)c2ccc3c(c2)OCCO3)cc1S(=O)(=O)Nc1cccc(Cl)c1	1.02	-1.93
O=C(NNC(=O)c1sc2cccc(Cl)c2c1Cl)NC1CCCCC1	0.32	-1.66
CCOC(=O)c1c(C)n(C)c2ccc(OCC(O)CNC(CC)CO)cc12 (stereo not drawn)	1.21	-1.54
CC(C)(C)C(=O)NCCCc1ccccc1	0.98	-0.24
COc1cc(-c2nnc(SCC(=O)N3CCCC3)o2)cc(OC)c1OC	1.16	-0.87
CCOC(=O)c1sc(NC(=O)C(C)(C)C)cc1C	1.2	-0.12
CSc1nnc(-c2ccc(S(=O)(=O)N3CCOCC3)cc2)n1CC1CCCO1 (stereo not drawn)	0.23	1.41
CN(C)C(/C=C/Nc1cccc(Br)c1)=C(C#N)C#N	1.47	0.36
Cc1oc2c(CN3CCCCC3)c(O)ccc2c(=O)c1-c1ccc(Br)cc1	0.21	0.51
C=C1CCN(c2ccc(C(=O)NCCC)cc2[N+](=O)[O-])CC1	0.74	1.13
O=C(CN1C(=O)C2C3C=CC(C3)C2C1=O)Nc1ccc(C(=O)O)cc1 (stereo not drawn)	0.62	1.46
CC(C)(CO)Nc1ncnc2onc(-c3ccc(F)cc3)c12	0.05	-0.51
Nc1nc(=S)n(-c2ccccc2)[nH]1	0.05	0.04
CCOC(=O)N1CCN(C(=O)CN(c2ccc(C)c(C)c2)S(=O)(=O)c2ccccc2)CC1	0.06	0.36
COc1ccc(C(=O)NN=C2CCCC2)c(OC)c1	0.12	1.1
COc1ccc(N=Nc2c(N)n[nH]c2N)cc1	0.16	2.06
CCOC(=O)/C=C/C(=O)OCC(=O)Nc1c(Cl)cccc1Cl	0.99	0.01
CC(C(=O)Nc1cccnc1)c1ccc([N+](=O)[O-])cc1 (stereo not drawn)	0.82	0.29
CC1(C)CC(=O)c2sc(NS(=O)(=O)c3ccc(Cl)cc3)nc2C1	0.47	-0.38
CC1(C)Cc2c(c(N3CCOCC3)nc3sc(C#N)c(N)c23)CS1	0.4	-1.25
O=C(COC(=O)c1cc(=O)[nH]c2ccccc12)c1ccc(Br)cc1	1.2	-0.25
Cc1cc(CNC(=O)C(C)Cc2ccccc2)nn1C (stereo not drawn)	0.8	0.88
Cc1[nH]c(=O)[nH]c(=O)c1/C=N/NC(=O)CCCCCNC(=O)OC(C)(C)C	0.3	-0.02
COc1ccc(/C=C/c2nnc(NC(=O)CSc3ccc(Cl)cc3)s2)cc1	0.57	1.6
COc1ccc(OC)c(S(=O)(=O)Nc2cccc(O)c2)c1	0.37	0.17
Cc1nnc(NC(=O)CSc2ncnc3c2cnn3-c2ccccc2C)s1	0.47	-2.36
CN(CC(=O)NC1CCCCCC1)S(=O)(=O)c1ccc(F)cc1	0.65	0.11
O=C(O/N=C/c1ccc2c(c1)OCO2)c1ccc([N+](=O)[O-])cc1	1.99	-0.54
N#CC1(c2c(O)nc3n(c2=O)CCCS3)CCCCC1	0.03	0.85
CCc1[nH]nc2c1C1(CCN(C(=O)OCc3ccccc3)CC1)C(C#N)=C(N)O2	0.57	-0.12
CN(C)Cc1c(O)ccc2[nH]cnc12	0.96	1.98
O=C(NCc1ccncc1)C(=O)NCC1OCCN1S(=O)(=O)c1cc(F)ccc1F (stereo not drawn)	1.54	0.55
CC(C)(C)C(=O)Cn1c(=O)n(CC2CCCO2)c(=O)c2ccccc21 (stereo not drawn)	2.01	-0.82
CCc1nc(NC(C)(C)C)c2cnn(-c3ccccc3)c2n1	1.12	0.85
COc1ccc(Br)cc1CNC(=O)Nc1cccs1	0.34	-0.93
Cc1c(C)c2ccc(OCC(=O)NCCN3CCOCC3)c(C)c2oc1=O	0.39	0.03
O=C(COc1ccc2ccc(=O)oc2c1)c1ccccc1	0.79	0.27
CCOc1ccc(NC(=O)C[n+]2ccc(N(C)C)cc2)cc1	0.02	-0.69
CC(=O)/C(C#N)=C1\NC(=O)C(Cc2ccc(C)c(C)c2)S1 (stereo not drawn)	7.18*	-1.43*
O=C(NNS(=O)(=O)c1cc(Cl)c(Cl)cc1Cl)c1cccnc1	0.68	-0.09
(continued)
SMILES	KCNQ2 enhance	KCNQ2 enhance baseline
Oc1cccc(/C=C/c2ccc3cccc(O)c3n2)c1	0.4	-0.92
CCOC(=O)c1ccccc1NC(=O)COC(=O)C1CC(=O)N(c2ccc3c(c2)OCCO3)C1 (stereo not drawn)	2.33	-0.14
NC(=O)CSc1nnc(-c2ccccc2Br)n1-c1cccc(C(F)(F)F)c1	0.47	-0.1
Cc1cc(C)n(-c2cc(C(C)(C)C)nc3c(-c4ccc(Cl)cc4)cnn23)n1	0.03	0.91
CC(C)(C)NC(=O)CSc1nnc(NC(=O)CCn2cnc3ccccc3c2=O)s1	1.91	-0.03
CCOC(=O)c1[nH]c2ccc(F)cc2c1NC(=O)CCN1CCOCC1	0.87	-0.81
COc1ccc(C(=O)Nc2ccc(C3(C#N)CCCC3)cc2)cc1OC	0.5	-1.25
O=C(Nc1ccccc1F)c1ccn[nH]1	0.08	1.16
C=CCN(Cc1ccco1)S(=O)(=O)c1ccc(Cl)cc1	0.45	-0.1
Cc1ccc(-c2noc(-c3ccoc3C)n2)cc1	0.39	-0.48
CC(C)c1ccc(NC2CCCN(C(=O)c3cnc4ccccn4c3=O)C2)cc1 (stereo not drawn)	0.09	-0.8
Cc1ccc(NC(=S)NC2CCN(Cc3ccccc3)CC2)c(C)c1	1.34	-0.33
O=C(Nc1ccc(F)cc1F)N1CCCN(c2ccc(C(F)(F)F)cn2)CC1	0.7	-0.68
